VACV Venus inh: inhibitors of vaccinia virus (Venus reporter); Vaccinia virus Venus reporter expression, fluorescence; Potency, µM (doses to about 36.5 µM), inactives show at the highest dose activity change, negative = inhibition, usual class: inhibitors; 330,000 compounds, 0.46% hits; AID 720580; active means well fitted inhibition curve with a large enough effect; inconclusive means small, poorly fitted or top-dose-only effect; inactive means no such curve, though single readings can be large or run the other way; tested in A549 cells; also: nearly all actives have a fitted effect of over 30% in size; inactives centre near -10
Vaccinia mCherry: inhibitors of vaccinia virus infection (mCherry reporter signal). Potency, µM (series often up to 36.5 µM), without a hit: at the highest dose activity change, negative = inhibition, actives largely listed as inhibitors. Vaccinia virus mCherry reporter infection, fluorescence; about a quarter of the inactives have no number. 310,000 compounds, 0.63% hits; active = well fitted inhibition curve with a large enough effect; inconclusive = small, poorly fitted or top-dose-only effect; inactive = no such curve, though single readings can be large or run the other way; tested in A549 cells; also: nearly all actives have a fitted effect of over 35% in size; inactives centre near -10
Active calls of the source: *; i = inactive; u = inconclusive; x = no result given; [ ] = remark or other dose. % is scaled to controls: 0 for no effect and ±100 for the full control effect; potency is read from the fitted curve at half-maximal effect.

Molecule	VACV Venus inh	Vaccinia mCherry
O=C(Nc1cccc(S(=O)(=O)N2CCOCC2)c1)[C@@H]1CCCN1S(=O)(=O)c1ccc(Cl)cc1	-17%	-14%
Cc1ccccc1OCC(=O)OCC(=O)N1CCc2ccccc21	-10%	-16%
O=S(=O)(CCc1nc2ccccc2o1)c1ccc2ccccc2c1	-25%	x
COC(=O)c1ccc(C(=O)NN)cc1	-2%	-10%
COc1cccc(CNC(=O)c2ccc3c(c2)N(C)C(=O)C2CCCCN32)c1 (stereo not drawn)	-4%	-17%
COc1ccc(CC(=O)NN2C(=O)c3ccccc3C2=O)cc1	-13%	-20%
Nc1c(C(=O)NCc2ccc3c(c2)OCO3)nnn1Cc1cccc(F)c1	15%	-25%
COc1ccc(NC(=O)c2cc(-c3cccs3)on2)c(OC)c1	6%	-8%
O=C(c1ccco1)N1CCN(S(=O)(=O)Cc2ccccc2Cl)CC1	-18%	i
CC(C)C[C@H](NC(=O)C1CC(=O)N(c2ccc(F)cc2)C1)C(=O)N1CCCCC1 (stereo partly drawn)	-8%	-5%
CCOC(=O)CNC(=S)N(CCCN1CCCC1)Cc1cccs1	-6%	i
CCN1C(=O)CS/C1=N\c1nccs1	-12%	x
CCn1c(SCC(=O)c2ccc(NC(C)=O)c(OC)c2)nnc1-c1ccc(NS(C)(=O)=O)cc1	-15%	-17%
CCN(CC)S(=O)(=O)c1ccc(OC)c(NC(=S)Nc2ccc(C)c(C)c2)c1	-17%	-12%
O=C1NC[C@H](CCCCN2C[C@H](Cc3ccc(O)cc3)N(CCC3CCCCC3)C(=O)C2=O)N(CCc2ccc(O)cc2)C1=O	6%	1%
Cc1ccc(Cc2nc(-c3cccnc3)no2)cc1	-21%	i
CCCN(C(=O)COc1cc(=O)n(CC)c2ccccc12)c1ccc(C(C)C)cc1	2%	-16%
COc1cc(-c2ccc3oc(-c4ccsc4)c(C#CC4(O)CCCCC4)c3c2)cc(OC)c1OC	u	-12%
CCCCC(NC(=O)c1ccc(C#N)cc1)C(=O)NCCC (stereo not drawn)	-1%	-11%
CCOc1ccc(-c2cc3c(=O)n(CC(=O)NCc4ccc(F)cc4)ccn3n2)cc1	8%	0%
CS(=O)(=O)c1ccc(C(=O)Nc2ccc(S(=O)(=O)N3CCCCC3)cc2)cc1	-14%	-5%
O=c1cc(CN2CCc3ccccc32)nc2sccn12	3%	-16%
O=C(CS(=O)(=O)c1ccc2ccccc2c1)Nc1ccccc1Cl	0%	-8%
COc1ccc(-c2nc3c4ccccc4ccn3c2Cc2cccc(F)c2)cc1OC	2%	-18%
CCN(CC)CCCNC(=O)c1ccc2c(=O)n(Cc3ccc4c(c3)OCO4)c(=S)[nH]c2c1	-17%	-2%
COc1ccc(CCN(Cc2cccs2)S(=O)(=O)c2ccc(-n3cnnn3)cc2)cc1OC	u	u
Cc1cccc(NC(=S)NC(=O)c2cc(-c3ccccc3)nc3ccccc23)c1	-9%	-6%
Cc1cc(Nc2ccccc2)nc(N)n1	-10%	0%
C[C@@]12CCC(OC(=O)c3ccccc3)CC1CCc1ccccc12 (stereo partly drawn)	0%	-2%
Cc1ccc(S(=O)(=O)Oc2ccc(/C=N/N=C3/NC(=O)C(CC(=O)O)S3)cc2)cc1 (stereo not drawn)	-7%	0%
Cn1c(CN2CCN(CC#N)CC2)c(C#N)c2ccccc21	-23%	i
O=S(=O)(CCn1cccc1)CCn1cccc1	-15%	i
O=C(CCN1CCOCC1)NCC(=O)Nc1ccc(Br)cc1C(=O)c1ccccc1	-14%	-20%
O=C1NC[C@H](Cc2ccccc2)N(CC2CCCCC2)C1=O	-11%	i
Cc1ccccc1NC(=O)c1nn(-c2ccc(F)c(F)c2)ccc1=O	-11%	-18%
CCOC(=O)CCc1c(C)c(C#N)c2nc3ccccc3n2c1-n1ccnc1	-9%	x
Cc1ccc2c(c1)c1nnc(SCC(=O)N3CCCc4ccccc43)nc1n2CC(=O)O	-1%	i
Cc1ccc(NC(=O)N2CCCCCC2)cc1C	-15%	-8%
COc1cc(/C=N/n2cnnc2)ccc1OC(=O)N(C)C	-6%	-12%
Cc1ccc(S(=O)(=O)/N=C2/NC(=O)/C(=C\c3ccco3)S2)cc1	-13%	0%
CCOc1cc(/C=N/N=C2/NC(=O)C(CC(=O)O)S2)ccc1OCc1ccccc1Cl (stereo not drawn)	6%	i
CCc1nnc(NC(=O)CSc2nc3c([nH]c4ccccc43)c(=O)n2-c2ccc(F)cc2)s1	-2%	-16%
C(#Cc1ccc(C#CCN2CCCC2)cc1)CN1CCCC1	-6%	-15%
COc1cccc(-c2n[nH]c3c2C(c2cccc(O)c2)N(C)C3=O)c1 (stereo not drawn)	-9%	-8%
Cc1ccc(-n2ccc(=O)c(C(=O)Nc3ccc(S(=O)(=O)Nc4nccs4)cc3)n2)cc1	0%	i
Cc1ccc(Cl)cc1-n1c(O)c(C=NCCCN2CCOCC2)c(=O)[nH]c1=O	-9%	i
Nc1c(C(=O)NCc2ccc(Cl)cc2)sc2nc(-c3ccc(F)cc3)ccc12	-25%	-11%
CC(NC(=O)c1cccc(S(=O)(=O)N(C)C)c1)C1CC2CCC1C2 (stereo not drawn)	-10%	-15%

The final 6 records of the section above come first, to join the parts:
Molecule	VACV Venus inh	Vaccinia mCherry
C(#Cc1ccc(C#CCN2CCCC2)cc1)CN1CCCC1	-6%	-15%
COc1cccc(-c2n[nH]c3c2C(c2cccc(O)c2)N(C)C3=O)c1 (stereo not drawn)	-9%	-8%
Cc1ccc(-n2ccc(=O)c(C(=O)Nc3ccc(S(=O)(=O)Nc4nccs4)cc3)n2)cc1	0%	i
Cc1ccc(Cl)cc1-n1c(O)c(C=NCCCN2CCOCC2)c(=O)[nH]c1=O	-9%	i
Nc1c(C(=O)NCc2ccc(Cl)cc2)sc2nc(-c3ccc(F)cc3)ccc12	-25%	-11%
CC(NC(=O)c1cccc(S(=O)(=O)N(C)C)c1)C1CC2CCC1C2 (stereo not drawn)	-10%	-15%
C/C(CC(=O)Nc1c(Cl)cccc1C(F)(F)F)=N\NC(=O)c1cnccn1	-3%	11%
COc1cc(=O)n2c(c1C(=O)NCc1ccco1)CCN(Cc1cc3ccccc3[nH]1)CC2	-16%	i
O=C(CCNC(=O)N1C[C@H]2C[C@@H](C1)c1cccc(=O)n1C2)Nc1ccc(F)cc1	-11%	-13%
Cc1cc(N2CCOCC2)n2nc(C(F)(F)F)c(-c3ccccc3)c2n1	-2%	-10%
Cc1ccc(NC(=O)CCc2nc3ccccc3[nH]2)cc1C	1%	-4%
Cc1ccc(C(C)CCN2CCOc3ccc(CN4CCOCC4)cc3C2)o1 (stereo not drawn)	-8%	i
COc1cc(O)c(C(CC(=O)N2CCOCC2)c2cc(OC)c(OC)c(OC)c2)c(OC)c1 (stereo not drawn)	-9%	-13%
O=C(O)C1CC=CCC1C(=O)NCCCCc1ccccc1 (stereo not drawn)	-16%	i
CC(Sc1nn(-c2ccc(F)cc2)c(=S)s1)C(=O)c1c(N)n(C)c(=O)n(C)c1=O (stereo not drawn)	-22%	u
COc1ccc(N2C(=O)/C(=C\c3ccco3)N=C2SCC(=O)NC(C)C)cc1Cl	-2%	-12%
CCC(=O)O/N=C(\N)c1ccc(Oc2cc(C)c(Cl)c(C)c2)c([N+](=O)[O-])c1	-26%	-10%
COc1ccc(-n2ccc(=O)c(C(=O)Nc3ccc(S(=O)(=O)Nc4nccs4)cc3)n2)cc1	0%[7.34 µM]	4%[7.34 µM]
CCNC(=S)NNC(=O)c1cc(-c2cccnc2)nc2ccccc12	-18%	-10%
COCCn1nnnc1C(c1ccc2ncccc2c1)N1CCc2ccccc21 (stereo not drawn)	-16%	0%
COCCn1c(=O)[nH]c2cc(C(=O)NCCN3CCN(c4ccc(OC)cc4)CC3)ccc2c1=O	-10%	-10%
Cc1cccc(C)c1NC(=O)NC1(C(=O)NCCN2CCOCC2)CCCCC1	-5%	-4%
Cc1noc(NS(=O)(=O)c2ccc(NC(=O)c3cc(S(=O)(=O)Nc4ccc(F)cc4)ccc3Cl)cc2)c1C	-19%	-12%
CSc1ncccc1C(=O)Nc1ccc(C)cn1	-6%	i
O=S(=O)(Cc1ncc(C(F)(F)F)cc1Cl)c1ccccc1	-9%	u
Cc1ccc(NC(=O)COC(=O)CNC(=O)C2CCCCC2)c(Br)c1	-7%	i
CC(=O)c1cccc(NC(=O)COC(=O)c2n[nH]c3ccccc23)c1	-4%	-2%
Cc1ccc(Cl)c(NC(=O)CN2C(=O)C(C)N(c3ccc(F)cc3)C2=O)c1Cl (stereo not drawn)	-20%	-2%
CCOC(=O)C1=C(C)NC(=S)NC1c1ccc(OCC(=O)N2CCCCCC2)cc1 (stereo not drawn)	-16%	-22%
Cc1cccc(Nc2nnc(SCC(=O)Nc3cccnc3Cl)s2)c1	-20%	-1%
Cc1onc(-c2ccccc2Cl)c1C(=O)N(Cc1ccccc1)C(C)C	-9%	-27%
O=S(=O)(CCSc1nc2ccccc2o1)Cc1ccccc1	u	u
CC(=O)Nc1ccc(SCC(=O)OCC(=O)NC(=O)NC2CCCC2)cc1	-5%	-2%
COc1ccc(/C=C\C(=O)NCc2ccc3[nH]c(C)cc3c2)cc1OC	-12%	u
CCOCCCNC(=O)c1ccc(CS(=O)(=O)Cc2cccc(C)c2)o1	-11%	i
CCc1ccc(C(=O)NC(CCSC)C(=O)OC)cc1 (stereo not drawn)	-2%	-15%
CCOc1ccc(CC(=O)NCCS(=O)(=O)N2CCN(c3ccccc3)CC2)cc1	-15%	i
COc1ccccc1N(CC(=O)NCCSc1ccc(Cl)cc1)S(C)(=O)=O	-12%	i
COc1ccc(C=C(C(=O)c2ccccc2)c2ccccc2)cc1	-11%	i
COc1cc(=O)n2c(c1C(=O)N(C)Cc1nccs1)CCN(Cc1ccc(Cl)cc1)CC2	-14%	i
CCOC(=O)c1sc(NC(=O)c2ccc(Cl)s2)cc1C	-11%	i
CCCCn1c(=O)cc(N2CCOCC2)[nH]c1=O	-9%	28%
CCOC(=O)c1cc2cc(F)ccc2nc1C	0%	x
CCCc1cc(=O)oc2cc(C)c3c(C(C)(C)C)coc3c12	-14%	-4%
O=C(N/N=C/c1ccc(OC(=O)c2ccccc2Cl)cc1)c1ccccn1	-3%	-8%
COc1ccc(CN(C(=O)c2snc(C(N)=O)c2N)C(C(=O)NC2CCCC2)c2ccc(OC)cc2)cc1 (stereo not drawn)	-9%	-1%
CCN(CC(=O)Nc1ccccc1C(=O)Nc1ccccc1)Cc1nc2ccccc2c(=O)[nH]1	-5%	-1%
CCOC(=O)C1=C(CC)Nc2ccccc2N=C1NC(=O)c1oc2ccccc2c1C	-6%	-16%
C(#Cc1ccccc1)CN1CCOCC1	1%	-3%
O=C(CSc1nncs1)Nc1ccc2[nH]c(=O)[nH]c2c1	10%	-3%
COc1ccc(-c2c3c(=O)n(C)c(=O)n(C)c3cn2-c2ccccc2)cc1	-14%	x
CC(=O)Nc1ccccc1-c1nc(CNC(=O)c2ccc(-c3ccccc3F)cc2)c(C)o1	-22%	-24%
Cc1nc2c(-c3ccccc3)cnn2c(N)c1-c1ccccc1	u	u
CCC(C)[C@H](N)c1cn([C@@H](CCCCN)C(=O)N2CCNCC2)nn1 (stereo partly drawn)	-13%	i
Cc1c(/C(O)=C2\C(=O)C(=O)N(CCCN(C)C)C2c2cccs2)cnn1-c1ccccc1 (stereo not drawn)	-5%	-7%
COc1cccc(CN2CCCN(Cc3ccc(F)cc3)S2(=O)=O)c1	-4%	-10%
Cc1cc(=O)oc2cc(OC(C)C(=O)NCC3CCC(C(=O)O)CC3)ccc12 (stereo not drawn)	0%	-6%
Cc1ccccc1C(=O)N1CCC(C(=O)Nc2cccc(F)c2)CC1	-24%	x
O=C1c2ccccc2[C@@H]2C[C@@H](O)[C@H](Nc3cccc(C(F)(F)F)c3)CCN12	-15%	u
CCCc1ccc(OC(=O)c2sc3ncn(Cc4cccc(F)c4)c(=O)c3c2C)cc1	0%	-4%
O=C(c1ccccn1)N(Cc1ccco1)C1(C(=O)Nc2ccc(Br)cc2)CCCCC1	-8%	-13%
COc1ccccc1N(C)S(=O)(=O)c1ccc(C(=O)N2CCCc3ccccc32)cc1	-11%	-26%
Cc1ccc(C2=NN(C(=O)CCl)C(c3cccs3)C2)o1 (stereo not drawn)	-11%	-28%
Cc1cccc(-c2nc3cc(NC(=O)COc4ccccc4F)ccc3o2)c1	-14%	-7%
CCCC(=O)n1nc(-c2ccccc2)nc1SC	-4%	-12%
COc1cccc(CC(NC(C)=O)C(=O)NC2CCN(S(=O)(=O)c3ccc4ccccc4c3)CC2)c1 (stereo not drawn)	-15%	-1%
Cc1cccc(C(=O)Oc2ccccc2C2C[C@]3(C)CC(=O)NC3N2C(=O)c2cccc(C)c2)c1 (stereo partly drawn)	-21%	-33%
Cc1ccc(S(=O)(=O)Nc2cc(C)c(O)cc2C)cc1	-19%	-18%
Cn1c(=O)oc2cc(S(=O)(=O)NC(Cc3ccccc3)C(=O)N3CCCCC3)ccc21 (stereo not drawn)	-15%	-21%
